AF4-AF9 inh: inhibitors of AF4 peptide binding to AF9, primary screen, biochemical, AlphaScreen, biotin-AF4 peptide, FLAG-AF9, single point. Protein AF-9 (Homo sapiens), P42568. inhibition, % at 10 µM. 350,000 compounds, 0.47% hits. AID 651704, 2012;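 active means every replicate reaching a set inhibition limit, whatever the replicate mean, cut at about 25% in these data; inconclusive means mean inhibition reaches that limit but some replicates miss it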;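 further: 0% = plate neutral control median and 100% = total signal loss; the record names both 10 and 1 µM as test concentration; the first replicate is given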
Target sequence (P42568 whole entry, looked up): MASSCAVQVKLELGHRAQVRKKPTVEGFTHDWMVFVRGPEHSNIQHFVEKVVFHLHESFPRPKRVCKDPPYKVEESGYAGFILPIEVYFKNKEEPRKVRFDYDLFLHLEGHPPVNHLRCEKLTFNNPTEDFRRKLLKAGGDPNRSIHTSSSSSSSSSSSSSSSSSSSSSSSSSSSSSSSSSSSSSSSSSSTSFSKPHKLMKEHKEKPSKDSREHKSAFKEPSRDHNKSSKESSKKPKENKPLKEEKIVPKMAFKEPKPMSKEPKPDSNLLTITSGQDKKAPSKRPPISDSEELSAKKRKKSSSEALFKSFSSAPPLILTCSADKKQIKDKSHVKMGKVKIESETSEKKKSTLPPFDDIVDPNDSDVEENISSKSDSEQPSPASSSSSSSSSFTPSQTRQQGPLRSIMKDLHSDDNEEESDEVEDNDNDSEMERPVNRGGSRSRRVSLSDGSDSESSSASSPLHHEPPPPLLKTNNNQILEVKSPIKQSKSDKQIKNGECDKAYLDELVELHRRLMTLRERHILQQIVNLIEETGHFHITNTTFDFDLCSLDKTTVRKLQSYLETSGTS
rRNA inh HTS: reduced GFP signal of wild-type E. coli, primary screen, bacterial rRNA inhibitor project, GFP/RFP fluorescence, OD600, single point; E. coli WT GFP vs humanized-ribosome RFP mutants, 24 h; active compounds read low; DMSO median 0, no signal -100; GFP signal change (wild-type ribosome), % (concentration not given with the values); 350,000 compounds, 1.6% hits; AID 720706, 2013;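 active means significant combined selectivity score with lowered wild-type GFP, culture density cut under 30%, mutant RFP and density less affected; inactive means any of these conditions unmet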; further: one replicate is shown; some compounds called inactive have numbers as strong as hits
E coli growth: E. coli growth inhibition, primary screen, OD600 | 330,000 compounds, 0.21% hits | AID 1053175, 2014 | OD600 absorbance (concentration not given with the values) | Escherichia coli growth, 23 h; active compounds read low;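 active means OD600 absorbance below the run mean of sample wells minus 3.6 SD, in any replicate, cut at about 0.56 in these data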;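 further: stock transfer was 300 nL into about 60 µL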
HNF4A DNA FP: change in binding of human HNF4A to DNA, primary screen, biochemical, fluorescence polarization, FITC-DNA. AID 1224865, 2016. activity change, % at 10 µM. 360,000 compounds, 0.3% hits. 1 h; in the data active means activity change above about 30%, passing the limit was not always enough;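 further: controls were the assay level and a saturating level of protein; the project sought stronger binding though the title names inhibitors; some compounds called inactive have numbers as strong as hits; positive values seem to mean higher polarization but the record does not say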
Vif A3G: inhibitors of Vif binding to APOBEC3G peptide, primary screen, biochemical, TR-FRET, GST-Vif 1-94, biotin-A3G peptide, dose response retest (AID 1117319); TR-FRET GST-Vif / biotin-A3G peptide binding; higher % means a stronger effect; test concentration not given here; strong numbers were not always called active; Virion infectivity factor (Human immunodeficiency virus type 1 group M subtype B (isolate …; 260,000 compounds, 0.57% hits; one-dose inhibition, %; IC50 in µM for titrated hits;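 active means above the screen mean plus three standard deviations and confirmed in dose response; inconclusive means results disagree or hit not tested in dose response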;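 further: Vif residues 1-94 fused to GST binding biotinylated APOBEC3G peptide 110-148; 0% = full assay without inhibitor and 100% = GST in place of GST-Vif; retest series ran down from 100 µM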
FGF22 binding: binders of human FGF22 protein, primary screen, FGF22 synaptogenesis inhibitor project, biophysical, thermal shift, single point; 340,000 compounds, 1.5% hits; recombinant FGF22 thermal shift, SYPRO orange fluorescence; percent of sucrose octasulfate shift, DMSO zero; calls only at 9.99 µM;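 active means melting point raised past a set limit in the mean and every replicate; inconclusive means no clear call; three in four hits are not shown here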
Target sequence (Q9HCT0 whole entry, looked up): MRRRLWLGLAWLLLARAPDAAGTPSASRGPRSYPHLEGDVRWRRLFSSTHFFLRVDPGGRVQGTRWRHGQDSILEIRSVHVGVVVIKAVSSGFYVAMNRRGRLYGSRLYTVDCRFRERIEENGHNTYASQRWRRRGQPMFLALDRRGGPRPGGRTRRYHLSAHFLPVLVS
ALR inh: inhibitors of human ALR sulfhydryl oxidase, primary screen, biochemical, H2O2 detection, HRP-luminol luminescence, single point. FAD-linked sulfhydryl oxidase ALR (Homo sapiens), P55789. purified ALR, DTT oxidation. inhibition, % (no concentration beside the values). 290,000 compounds, 3.8% hits. AID 485317, 2010;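 active means mean and each replicate at 75% or more; inconclusive means only one of the two met; inactive means neither met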;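 further: stock transfer was 7.5 nL into about 7.5 µL; 0% = neutral wells and 100% = wells with inactivated enzyme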
Target sequence (P55789 whole entry, looked up): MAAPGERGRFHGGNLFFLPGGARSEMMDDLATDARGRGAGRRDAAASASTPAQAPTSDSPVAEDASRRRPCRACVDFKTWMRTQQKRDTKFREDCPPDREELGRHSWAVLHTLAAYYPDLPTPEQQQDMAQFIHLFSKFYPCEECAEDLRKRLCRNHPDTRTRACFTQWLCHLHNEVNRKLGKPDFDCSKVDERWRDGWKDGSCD
rRNA inh HTS OD600: second read-out of rRNA inh HTS, no call of its own (marks repeat the call); OD600 change, %; measured here: OD600 growth;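 optical density of the mix in the first replicate; 0 = DMSO median and -100 = no signal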
rRNA inh HTS RFP: further read-out of rRNA inh HTS, marked with its call; RFP signal change, %; measured here: RFP humanized mutant strains;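 first replicate; 0 = DMSO median and -100 = no signal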
The depositor's hits bear a star; i = inactive; u = inconclusive; x = not tested or not shown; & = joins results of further samples.

No.	structure	FGF22 binding	AF4-AF9 inh	rRNA inh HTS OD600	rRNA inh HTS	rRNA inh HTS RFP
1	CCCCCCCCCCCCCCCCn1cc[n+](C)c1	i	11	-80	-62	-26
2	CN(C[C@H](Cc1ccccc1)N(C[C@@H](Cc1cccc2ccccc12)N(CCc1ccccc1)N=O)N=O)N=O	i	0.0	14	12	0.4
3	COc1ccc(C=C(NC(=O)c2ccccc2)C(=O)O)cc1OC	i	-3.6	7	-1	-4.3
4	CC(=N\NC(=O)c1ccc([N+](=O)[O-])cc1)/C(=N/O)C(=O)Nc1ccccc1	i	14	-3	4	-1.5
5	COc1ccc(C=NNC(=O)CCCC(=O)NN=Cc2ccc(OC)c(O)c2)cc1O	i	-4.7	4	9	2.5
6	CCOc1ccc(CN2CCN(Cc3cnc(-c4ccccc4)s3)CC2CCO)cc1 (centres undefined)	x	x	x	x	x
7	CC(C)NC(=O)NCC[C@H]1CC[C@H](NC(=O)CCN2CCCCC2)[C@H](CO)O1	i	2.8	6	1	-0.2
8	Cc1ccc(N2CC(C(=O)Nc3ccc4c(c3)OCCO4)CC2=O)cc1 (centres undefined)	i	-3.0	-2	1	-1.7
9	Cc1cc(N2C(=O)C(O)=C(C(=O)c3ccco3)C2c2ccc([N+](=O)[O-])cc2)no1 (centres undefined)	i	-1.8	7	5	2.0
10	CN1C(=O)NC(NC(=O)c2ccncc2)(C(F)(F)F)C1=O (centres undefined)	x	x	x	x	x
11	COc1ccc2c3c(n(C)c2c1)[C@@H](CO)N(Cc1ccc(Cl)cc1)CC31CCN(CC2CC2)CC1	i	37*	-39	-11	14
12	COc1ccc(C(=O)CCC(=O)Nc2cccc(Cl)c2)cc1	i	-20	4	1	1.7
13	O=C(c1ccccc1)c1ccccc1NC(=O)C1CCCN1Cc1ccccc1 (centres undefined)	x	3.4	-42	-38	-7.1
14	O=C(C[C@@H]1CC[C@@H]2[C@H](COC[C@H](O)CN2CCC(F)(F)F)O1)N1CCC(Cc2ccccc2)CC1	i	0.7	-35	-12	3.1
15	COc1ccc(NC(=O)N(C)C[C@@H]2Oc3c(cccc3N(C)C)C(=O)N([C@H](C)CO)C[C@@H]2C)cc1	i	1.3	0	-4	-0.5

No.	ALR inh	HNF4A DNA FP	E coli growth	Vif A3G
1	-11&-8	24	0.066*	u
2	-11	-4.2	x	u
3	x	-2.0	x	-3%
4	-20	2.6	x	x
5	x	-6.0	x	-3%
6	-5	0.8	0.68	2%
7	x	x	x	x
8	x	-0.4	0.65	-5%
9	6	-1.5	0.64	x
10	-9	2.9	0.68	-4%
11	x	x	x	x
12	-4	4.5	0.67	x
13	x	0.9	0.64	-17%
14	x	x	x	x
15	x	x	x	x

The list goes on.
No.	structure	FGF22 binding	AF4-AF9 inh	rRNA inh HTS OD600	rRNA inh HTS	rRNA inh HTS RFP
16	O=C(NCCc1ccccc1)C(=O)NN=C1CCCC1	x	x	x	x	x
17	O=C(Nc1ccc(F)cc1)NC1CCCCC1	x	x	x	x	x
18	CC[C@H](C)[C@H](NC(N)=O)C(=O)NCCc1ccc(OC)cc1	i	0.9	4	5	-1.6
19	COc1cc(/C=N/n2cnnc2)ccc1OCCSc1ccc(C)cc1	x	x	x	x	x
20	COc1ccc(C2C(C#N)=C3NC(=O)c4c(sc5c4CCCCC5)N3C3=C2C(=O)CC(C)(C)C3)cc1 (centres undefined)	x	x	x	x	x
21	COC(=O)c1cc(NC(=O)COC(=O)CCc2nc3ccccc3c(=O)[nH]2)cc(C(=O)OC)c1	i	-60	27	26	-1.4
22	NC(=O)c1oc2ccccc2c1NC(=O)CS(=O)(=O)c1ccccc1	i	-9.0	4	7	2.9
23	COc1ccc(OCCNc2cc(N3CCCCC3)ccc2[N+](=O)[O-])cc1	x	x	x	x	x
24	Nc1c2c(nc3cccc(Cl)c13)N(c1ccccc1)CC2	i	1.6	6	4	-2.9
25	O=C(C[C@H]1C[C@H]2c3cc(NC(=O)Cc4ccncc4)ccc3O[C@H]2[C@@H](CO)O1)NCc1ccccc1	i	-1.0	0	-2	-2.3
26	COc1ccc(Br)cc1CNC(=O)C1CCCN(c2nc3ccccc3o2)C1 (centres undefined)	x	x	x	x	x
27	CCc1ccc(NC(=O)CCC(=O)c2ccccc2)cc1	i	-13	3	1	-1.3
28	C[C@@H]1CN([C@H](C)CO)C(=O)c2cccc(NC(=O)C3CCCCC3)c2O[C@H]1CN(C)S(C)(=O)=O	i	-0.1	4	0	-2.4
29	COc1ccc(CN2CC3(CCN(C(=O)C4CC4)CC3)c3c(n(C)c4cc(OC)ccc34)[C@H]2CO)cc1	i	4.4	-3	2	4.2
30	NC(N)=NS(=O)(=O)c1ccc(N=C2C(=O)Nc3ccccc32)cc1	i	-2.9	1	4	-0.6

No.	ALR inh	HNF4A DNA FP	E coli growth	Vif A3G
16	x	-0.7	0.67	-8%
17	x	3.0	0.69	5%
18	-1	1.9	0.68	65%
19	-2	0.6	x	0%
20	-1	11	0.77	u
21	x	1.1	0.7	12%
22	1	-1.1	0.64	6%
23	-2	-1.0	0.77	2%
24	-11	1.3	0.68	-35%
25	x	x	x	x
26	2	-3.9	0.74	10%&-8%
27	x	-1.0	0.65	0%
28	x	x	x	x
29	x	x	x	x
30	41	-1.6	0.63	6%

Fetched by compound from above:
No.	structure	FGF22 binding	AF4-AF9 inh	rRNA inh HTS OD600	rRNA inh HTS	rRNA inh HTS RFP
17	O=C(Nc1ccc(F)cc1)NC1CCCCC1	x	x	x	x	x
16	O=C(NCCc1ccccc1)C(=O)NN=C1CCCC1	x	x	x	x	x
25	O=C(C[C@H]1C[C@H]2c3cc(NC(=O)Cc4ccncc4)ccc3O[C@H]2[C@@H](CO)O1)NCc1ccccc1	i	-1.0	0	-2	-2.3

No.	ALR inh	HNF4A DNA FP	E coli growth	Vif A3G
17	x	3.0	0.69	5%
16	x	-0.7	0.67	-8%
25	x	x	x	x

Carrying on:
No.	structure	FGF22 binding	AF4-AF9 inh	rRNA inh HTS OD600	rRNA inh HTS	rRNA inh HTS RFP
31	Clc1ccccc1CN1CCN(/N=C/C=C/c2ccco2)CC1	i	x	-7	-10	2.4
32	CCOc1cc(N2CCOCC2)c(OCC)cc1NC(=O)C(C)C	i	-41	-1	4	-1.9
33	O=C(NCC(=O)N(c1ccc(F)cc1)C(C(=O)NC1CCCC1)c1ccncc1)c1ccco1 (centres undefined)	i	-0.1	8	8	-0.2
34	CC(C)(C)C(=O)Nc1ccc(C(=O)N/N=C/C2CC3C=CC2C3)cc1 (centres undefined)	i	1.3	4	3	0.8
35	Cn1c(N)c(C(=O)c2ccccc2)c(=O)n(C)c1=O	x	x	x	x	x
36	COC(=O)N/N=C/c1cc([N+](=O)[O-])cc(Br)c1O	x	x	x	x	x
37	CC(Sc1nnnn1-c1ccccc1)C(=O)Nc1ccccc1-c1ccccc1 (centres undefined)	x	x	x	x	x
38	C=CCc1ccc(OCCCOc2ccc(C)cc2OC)c(OC)c1	x	x	x	x	x
39	CCCC(=O)Nc1nnc(S(=O)(=O)N(CC)c2ccc(OC)cc2)s1	i	-1.6	15	13	0.2
40	CCCCOc1ccc(C(=O)Nc2ccc(S(=O)(=O)Nc3onc(C)c3C)cc2)cc1	i	-1.9	-18*	-24*	-3.1*
41	CCOC(=O)C1=C(C)N(c2ccc(OCC)cc2)C(=O)/C1=C\c1ccco1	i	7.0	-2	2	0.6
42	C[C@H]1CN([C@@H](C)CO)C(=O)c2cc(NC(=O)Nc3ccc(C(F)(F)F)cc3)ccc2O[C@@H]1CN(C)S(C)(=O)=O	i	1.4	-11	-2	0.9
43	O=C(Nc1ccccc1-c1ccccc1)C12CC3CC(CC(C3)C1)C2	x	x	x	x	x
44	COCCN(C(=O)CSc1nnc(-c2ccccc2F)o1)c1c(N)n(Cc2ccccc2)c(=O)[nH]c1=O	i	-3.3	3	10	3.2
45	COc1ccc(S(=O)(=O)NC(C)C(=O)NCCN2CCOCC2)cc1Cl (centres undefined)	i	0.3	13	8	-0.3

No.	ALR inh	HNF4A DNA FP	E coli growth	Vif A3G
31	5	-1.1	x	0%
32	-20	-1.5	0.63	32%
33	-2	-4.2	0.69	11%
34	-10	0.3	x	-2%
35	-18	0.5	0.79	0%
36	4	-0.5	x	6%
37	-29	2.2	0.69	1%
38	-4	-2.0	0.73	u
39	-23	3.8	0.68	4%
40	1	-3.0	x	-1%
41	x	2.6	0.67	11%
42	x	x	x	x
43	-22	3.0	0.72	-4%
44	x	-4.4	x	7%
45	-8	2.0	0.64	x

Continuation.
No.	structure	FGF22 binding	AF4-AF9 inh	rRNA inh HTS OD600	rRNA inh HTS	rRNA inh HTS RFP
46	Cc1c(C(=O)OCc2nc3ccsc3c(=O)[nH]2)oc2ccccc12	i	-2.6	-20	-20	-3.3
47	CCc1nc2ccc(C(=O)N3CCN(S(=O)(=O)CC)CC3)cn2c1N(CC)CCOC	i	-2.5	13	12	-0.8
48	COc1ccc(S(=O)(=O)N2CCC(C(=O)Nc3nnc(C)s3)CC2)cc1OC	i	-0.3	7	8	3.6
49	COc1ccc(CN(C)C[C@H]2OCc3cn(nn3)CCCC(=O)N([C@H](C)CO)C[C@@H]2C)cc1	i	0.8	4	2	-2.0
50	N#Cc1cccc(-c2ccc([C@@H]3[C@@H](CO)N4CCCCN(C(=O)Nc5ccccc5)C[C@H]34)cc2)c1	i	7.5	-10	-5	3.4
51	Cc1cc(F)cc(-c2cc(C(=O)NCc3ccccn3)[nH]n2)c1	i	-2.4	10	-1	-1.9
52	COc1ccccc1-c1nc2ccccc2c(=O)n1O	i	1.3	-2	7	-3.6
53	CC1CCN(CCCNC(=O)C2CCC(CNS(=O)(=O)c3ccccc3)CC2)CC1 (centres undefined)	i	4.5	7	1	-2.8
54	CC1=CC(=O)C(C(C)C)=CC1=NC(=O)c1ccc(C)cc1	i	-11	7	4	0.1
55	Cc1ccc(S(=O)(=O)Nc2ccc3c(c2)C(=O)N([C@@H](C)CO)C[C@@H](C)[C@H](CN(C)S(=O)(=O)c2cn(C)cn2)OCCCC[C@@H](C)O3)cc1	i	-2.7	-5	-3	0.5
56	COc1ccc(OCc2cc(C(=O)N3CCC(c4ccccc4)CC3)no2)c(Cl)c1	i	-3.3	5	5	-0.6
57	Cc1c(C(=O)Nc2ccccc2F)sc2ncn(CC(=O)N3CCOCC3)c(=O)c12	i	-1.1	-6	2	-2.0
58	O=C(NCCCN1CCOCC1)c1ccc(Sc2ccc(F)cc2)c([N+](=O)[O-])c1	x	x	x	x	x

No.	ALR inh	HNF4A DNA FP	E coli growth	Vif A3G
46	2	2.2	0.64	-3%
47	x	1.4	x	x
48	11	-1.8	0.67	-3%
49	x	x	x	x
50	x	x	x	x
51	x	-2.5	x	x
52	0	0.5	0.65	1%
53	-2	2.5	0.7	-3%
54	-12	1.7	0.69	x
55	x	x	x	x
56	-4	2.2	0.73	4%
57	0	1.3	0.63	-3%
58	-6	0.0	0.7	x

Screening results from PubChem BioAssay.

A portion of the library, so the mix of outcomes need not match the whole.
